From PubChem
VDR inhibitor: inhibitors of human vitamin D receptor. 400,000 tested, 0.93% active. P11473. VDR-SRC2-3 peptide fluorescence polarization, 2 h. Potency, µM, for the others: max response, negative = inhibition, hits mostly inhibitors; active means well fitted inhibition curve with a large enough effect; inconclusive means small, poorly fitted or top-dose-only effect, or another doubt; inactive means no such curve, though single readings can be large or run the other way; further: series mostly up to about 120 µM
Target sequence (P11473 whole entry, looked up): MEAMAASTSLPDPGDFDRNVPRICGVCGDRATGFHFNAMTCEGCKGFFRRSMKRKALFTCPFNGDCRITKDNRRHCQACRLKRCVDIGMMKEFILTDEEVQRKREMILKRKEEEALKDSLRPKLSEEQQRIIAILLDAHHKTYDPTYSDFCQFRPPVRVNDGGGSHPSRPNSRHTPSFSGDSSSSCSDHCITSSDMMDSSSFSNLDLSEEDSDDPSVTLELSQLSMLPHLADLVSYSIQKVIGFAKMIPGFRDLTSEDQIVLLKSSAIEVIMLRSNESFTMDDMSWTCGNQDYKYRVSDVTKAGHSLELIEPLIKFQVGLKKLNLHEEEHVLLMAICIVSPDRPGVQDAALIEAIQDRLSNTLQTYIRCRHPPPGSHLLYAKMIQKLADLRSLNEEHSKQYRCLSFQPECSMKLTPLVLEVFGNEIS
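Two reagent solutions held at 4 deg C in the dark were dispensed, compounds pinned at 23 nl, and the mixture incubated 2 h at room temperature. Read-out: fluorescence polarization of VDR–SRC2-3 peptide binding.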
Numbers without * were called inactive; ? = inconclusive; & = joins results of further samples. On the % scale 0 is the no-effect control and ±100 the full control effect; potency means the concentration at half of the fitted maximal effect. Only part of the results is shown; rates above refer to the full screens.

SMILES	VDR inhibitor
COc1ccc(CCNC(=O)C(=O)NCCOc2ccccc2Cl)cc1OC	-25%
O=C1N=C(N2CCCCC2)S/C1=C\c1ccc(Br)cc1	-7%
COc1ccccc1NC(=O)c1c(NC(=O)COc2ccccc2)sc2c1CCCCC2	-14%
COC(=O)c1c(C)[nH]c(C(=O)CC#N)c1C	2%
CC(=O)Nc1cccc(NC(=O)CSc2ccc(-c3cccnc3)nn2)c1	-11%
Cc1ccc(NC(=O)Cn2nc(-c3ccccc3)nc2-c2ccccc2)c(C)c1	19%
CC(C)NC(=O)C(C)N1CCN(S(=O)(=O)c2ccc3ccccc3c2)CC1 (configuration not stated)	-1%
O=C(Cc1c(F)cccc1Cl)OCC(=O)N1CCN(c2ccccc2)CC1	10%
CC(NS(=O)(=O)c1ccccc1)C(=O)Nc1ccc(S(N)(=O)=O)cc1 (configuration not stated)	-2%
CCOc1ccc(CC(=O)Nc2sc(Cc3ccccc3)cc2C(N)=O)cc1OCC	?
O=Cc1cn(CC(=O)N2CCCc3ccccc32)c2ccccc12	-13%
O=C(Cc1ccccc1)N1CCN(c2ccccc2F)CC1	-11%
COc1ccc(-c2c(C)cc3oc(=O)cc(-c4ccccc4)c3c2C)cc1F	6%&-6%
O=S(=O)(c1cccc(Cl)c1)c1nnn2c1nc(NCc1ccc3c(c1)OCO3)c1sccc12	3%
COc1cc(CN2CCC(N3CCC(C(=O)N4CCCC4)CC3)CC2)cc2c1OCO2	-4%
COc1ccc2cc(C(=O)N/N=C/c3cc(OC)c(OC)c(OC)c3)[nH]c2c1	22%
CCn1c(=O)c2sccc2n2c(CCC(=O)Nc3ccc(F)cc3)nnc12	-17%
COc1ccc(-c2ccc3oc(-c4ccc(OC)cc4)c(C#CCCO)c3c2)cc1	-17%
COc1ccccc1/C=N/NC(=O)c1nnn(-c2nonc2N)c1CN(C)c1ccccc1	6%
O=C1OCCC1Sc1nc2ccccc2s1 (configuration not stated)	-8%
CCC(=O)NC(Nc1c(C)n(C)n(-c2ccccc2)c1=O)C(Cl)(Cl)Cl (configuration not stated)	-15%
O=C(NCC1CCCO1)c1cc2c([nH]c3ccccc32)c(-c2cccc(Cl)c2)n1 (configuration not stated)	-17%
Cc1ccccc1C(=O)Nc1cccc(OCc2cc(=O)n3c4c(sc3n2)CCCC4)c1	6%
CCOC(=O)C1Sc2ccccc2NC1=O (configuration not stated)	-3%
CC(C)CC(=O)N1CCN(S(C)(=O)=O)CC1	-11%
Nc1cc(Br)c(N)c(Br)c1	2%
CC(C)CN(C(=O)COc1cccc(-n2cnnn2)c1)C1CCS(=O)(=O)C1 (configuration not stated)	-11%
Brc1ccc(OCCOc2cccc3cccnc23)cc1	-22%
CC1=C(C(=O)OCc2ccccc2)C(c2ccc3ccccc3c2)NC(=O)N1CCCCCC(=O)O (configuration not stated)	-12%
CCN(C(=O)CN1CCN(c2ccc(OC)cc2)CC1)c1c(N)n(Cc2ccccc2)c(=O)[nH]c1=O	-6%
COC(=O)CC1C(=O)NCCN1C(=O)CSc1nnc(Nc2ccc(C)cc2)s1 (configuration not stated)	-1%
Cn1c(=O)c(C(=O)CN2CC(=O)Nc3ccccc32)c(N)n(Cc2ccccc2)c1=O	3%
O=P(O)(C(O)c1ccccc1)C(O)c1ccccc1 (configuration not stated)	-21%
COc1ccc(-n2c(Cc3cccn3C)nnc2SCC(=O)NC2CCCCC2)cc1	-22%
CCOc1cc(/C=N/NC(N)=O)cc(Br)c1OCc1ccccc1F	-8%
CC(=O)Nc1cccc(C(=O)N(Cc2ccccc2)Cc2ccccc2)c1	-23%
CC(=O)Nc1nc2ccc(Br)cc2s1	-13%
COc1ccc2oc(C(=O)OCC(=O)NC3CCCCC3)c(C)c2c1	-6%
CC(Nc1nc(Nc2ccc(F)cc2)nc(SCC(N)=O)n1)c1ccccc1 (configuration not stated)	-29%
Cc1ccc(S(=O)(=O)N2CCC(C(=O)N3CCC[C@H]3C(=O)NCC(C)C)CC2)cc1	10%
CC(C)/C(C=O)=C(/NC1CCCCC1)c1ccccc1	-14%
CC(C)C(=O)NNc1nc2ccccc2s1	4%
CCN(CC)S(=O)(=O)c1cccc(C(=O)NC(Cc2c[nH]c3ccccc23)c2nnc3n2CCC3)c1 (configuration not stated)	-3%
O=C(CCl)N(Cc1cccc([N+](=O)[O-])c1)c1cccc(Cl)c1	?
CC(=O)Oc1ccc(N2C(=O)CC(N3CCOCC3)C2=O)cc1 (configuration not stated)	-17%
CC1CCN(C(=O)C(C)OC(=O)CSc2ccc([N+](=O)[O-])cc2)CC1 (configuration not stated)	?
O=C(Nc1cccc(C(F)(F)F)c1)N1CC2CCCN2c2ccccc21 (configuration not stated)	8%
Cc1ccc(C2(c3ccccc3)NC(=O)N(CC(=O)NCc3ccccc3)C2=O)cc1C (configuration not stated)	-4%
Cn1cccc1-c1nc2ccccc2n1Cc1ccccc1	-10%
Cc1ccc(-c2nnc3ccc(SCC(=O)N4CCCc5ccccc54)nn23)cc1	-13%

Next part:
SMILES	VDR inhibitor
O=S(=O)(NCC1CCCO1)c1ccc(S(=O)(=O)N(Cc2ccc(F)cc2)Cc2ccccn2)cc1 (configuration not stated)	-2%
CCOC(=O)C1=C(COC(=O)c2nc(Cl)ccc2Cl)NC(=O)NC1C (configuration not stated)	-5%
O=C(NCCc1ccccc1)c1cc(-c2ccco2)on1	12%
O=C(C[n+]1ccccc1)Nc1ccc(Cl)c([N+](=O)[O-])c1	9%
O=C(C1CCN(S(=O)(=O)N2CCOCC2)CC1)N1CCN(c2ccc(F)cc2)CC1	22%
Cn1ccc(C(=O)OCC(=O)Nc2ccccc2)n1	-5%
CCOC(=O)c1cc2c(=Cc3ccc(N(C)C)cc3)c3ccccc3n2[n+]1C	?
C=CCC[C@H](Cc1ccc(F)cc1)C(=O)OC[C@@H](NC(=O)[C@H](CC=C)CC(=O)NCCO)C(C)(C)C	1%
O=[N+]([O-])c1ccc(CN2CCSCC2)cc1	6%
OCC1(Cc2ccccc2)CCN(C2CCN(c3ccccc3F)CC2)CC1	0%
N#Cc1cnn2c1nc(N1CCCCC1)c1ccccc12	-3%
COc1ccc(CCNC(=O)C2(c3cccs3)CCOCC2)cc1OC	7%
Cn1cnc(S(=O)(=O)Nc2ccc3c(c2)OCCO3)c1	-20%
COc1ccc(/C=N/NC(=O)COc2ccccc2-c2ccccc2)cc1	4%
CCC(=O)NCCc1nc2cc(NC(=O)c3ccco3)ccc2n1C	-1%
COCCNC(=O)C(C)N(c1ccc(OC)cc1)S(C)(=O)=O (configuration not stated)	5%
Cc1nnsc1NC(=O)OCC(C)(C)C	-6%
CCc1sc(C(=O)Nc2ccc3nc(C)sc3c2)cc1C	10%
CCn1c(SCC(=O)Nc2ccc3c(c2)OCO3)nnc1C(C)C	9%
O=C(NCCc1cccc(F)c1)C1CCC(=O)N(CCCc2ccccc2)C1 (configuration not stated)	7%

As a short view, part of the list above:
SMILES	VDR inhibitor
Cc1ccc(-c2nnc3ccc(SCC(=O)N4CCCc5ccccc54)nn23)cc1	-13%
O=S(=O)(NCC1CCCO1)c1ccc(S(=O)(=O)N(Cc2ccc(F)cc2)Cc2ccccn2)cc1 (configuration not stated)	-2%
CCOC(=O)C1=C(COC(=O)c2nc(Cl)ccc2Cl)NC(=O)NC1C (configuration not stated)	-5%
O=C(NCCc1ccccc1)c1cc(-c2ccco2)on1	12%
O=C(C[n+]1ccccc1)Nc1ccc(Cl)c([N+](=O)[O-])c1	9%
O=C(C1CCN(S(=O)(=O)N2CCOCC2)CC1)N1CCN(c2ccc(F)cc2)CC1	22%
Cn1ccc(C(=O)OCC(=O)Nc2ccccc2)n1	-5%
CCOC(=O)c1cc2c(=Cc3ccc(N(C)C)cc3)c3ccccc3n2[n+]1C	?
C=CCC[C@H](Cc1ccc(F)cc1)C(=O)OC[C@@H](NC(=O)[C@H](CC=C)CC(=O)NCCO)C(C)(C)C	1%
O=[N+]([O-])c1ccc(CN2CCSCC2)cc1	6%
OCC1(Cc2ccccc2)CCN(C2CCN(c3ccccc3F)CC2)CC1	0%
N#Cc1cnn2c1nc(N1CCCCC1)c1ccccc12	-3%
COc1ccc(CCNC(=O)C2(c3cccs3)CCOCC2)cc1OC	7%
Cn1cnc(S(=O)(=O)Nc2ccc3c(c2)OCCO3)c1	-20%
COc1ccc(/C=N/NC(=O)COc2ccccc2-c2ccccc2)cc1	4%
CCC(=O)NCCc1nc2cc(NC(=O)c3ccco3)ccc2n1C	-1%
COCCNC(=O)C(C)N(c1ccc(OC)cc1)S(C)(=O)=O (configuration not stated)	5%
Cc1nnsc1NC(=O)OCC(C)(C)C	-6%
CCc1sc(C(=O)Nc2ccc3nc(C)sc3c2)cc1C	10%
CCn1c(SCC(=O)Nc2ccc3c(c2)OCO3)nnc1C(C)C	9%
O=C(NCCc1cccc(F)c1)C1CCC(=O)N(CCCc2ccccc2)C1 (configuration not stated)	7%

(next part)
SMILES	VDR inhibitor
CN(CC(=O)Nc1ccc(F)c(F)c1F)C(=O)c1ccc2c(c1)S(=O)(=O)N=C1CCCCCN12	30%
CSc1nc(C)cc(Oc2ccccc2)n1	11%
CCN(CC)C(=O)CSc1ncnc2sc(C)c(C)c12	-9%
Cc1cc(C)n2nc(C(=O)OCC(=O)Nc3ccc(C)c(F)c3)nc2n1	20%
C/C(=N\NC(=O)c1cc(C)nc2ccccc12)c1cccc(Cl)c1	0%
Cc1nn(C)cc1S(=O)(=O)N1CCN(Cc2ccccc2Cl)CC1	-6%
CCOc1ccc(-c2cccc(NS(=O)(=O)c3ccccc3[N+](=O)[O-])c2)nn1	10%
O=S(=O)(Cc1cc(Sc2ccccc2)nc(-c2ccccc2)n1)c1ccccc1	-3%
CCCNCc1nnc(-c2ccccc2Cl)o1	-8%
C=CCOc1ccc(/C(O)=C2/C(=O)C(=O)N(CCCn3ccnc3)C2c2ccco2)cc1 (configuration not stated)	3%
CCC1(C)N(O)C(C)(C)C(c2ccc(F)cc2)=[N+]1[O-] (configuration not stated)	8%
COc1cccc(N2CC(NC(=O)c3cccc4ccccc34)CC2=O)c1 (configuration not stated)	7%
CCN(CC)S(=O)(=O)c1ccc(NS(=O)(=O)c2ccc(O)c([N+](=O)[O-])c2)cc1	2%
COC(=O)c1sc(NC(=O)c2c(C)noc2C)nc1C	-12%
CC(=O)Nc1ccc(S(=O)(=O)Nc2cc(C)ccn2)cc1	5%
O=c1[nH]c(C(F)(F)F)nc2c1nnn2Cc1ccccc1F	-15%
CCN1CCN(CC(=O)c2c[nH]c3ccccc23)CC1	-6%
COc1ccc([N+](=O)[O-])cc1Nc1c2ccccc2nc2ccccc12	-4%
CCOc1cc(-c2cc(N)n[nH]2)cc(OCC)c1OCC	-22%
Cc1ccc(-c2noc(CN(C(=O)CCCCCN3C(=O)c4ccccc4C3=O)C(C)C)n2)cc1	8%
COc1ccc2oc(=O)c(C(=O)N3CCN(c4ccc(C)cc4)CC3)cc2c1	-9%
COc1ccccc1NC(=O)/C=C\C(=O)O	-10%
COc1c(C(C)C)oc2cc3oc(=O)ccc3cc12	-4%&-11%
Cc1ccc(-c2noc(-c3nnn(CC(=O)Nc4ccc(C)c(Cl)c4)c3N)n2)cc1	-2%
Brc1ccc2[nH]c3nc(SCCN4CCOCC4)nnc3c2c1	7%&-1%
COc1ccc(C(C[N+](=O)[O-])c2c(-c3ccccc3)cc3ccccn23)c(OC)c1 (configuration not stated)	71µM*
CCCCNC(=O)C1CCC(CNc2c(N3CCC(C)CC3)c(=O)c2=O)CC1 (configuration not stated)	-19%
CC(C)c1ccc(COC(=O)CN2C(=O)NC3(CCCCC3C)C2=O)cc1 (configuration not stated)	6%
CC(C)=CCC(C)(C)C1OCCN1C(=O)Nc1ccccc1 (configuration not stated)	0%
COC(=O)c1cccc(NC(=O)CSc2nnc(C)n2Cc2ccccc2)c1	-6%
NS(=O)(=O)c1ccc(CCNC(=O)C(=O)NCC2OCCN2C(=O)c2ccc3c(c2)OCO3)cc1 (configuration not stated)	-7%
CC(C)N(Cc1nccn1C)C(=O)CC1C(=O)NCCN1Cc1ccc(F)c(F)c1 (configuration not stated)	25%
COc1ccc(NC(=O)CCC(=O)OCC(=O)c2ccc(Oc3ccc([N+](=O)[O-])cc3)cc2)cc1	8%
COc1ccc(CCNC(=O)Cn2cc(S(=O)(=O)Cc3ccc(F)cc3)c3ccccc32)cc1OC	13%
CC/C(=N\NC(=O)Nc1nonc1N)c1ccc(OC)c(OC)c1	-6%
O=C(Nc1ccc(Br)cc1)c1cccn1-c1ncc(C(F)(F)F)cc1Cl	19%
COc1ccc(OC)c(CNC(=O)CCSCc2ccc(F)cc2Cl)c1	0%
CC(C)NC(=O)c1ccc(Sc2ccccc2)c([N+](=O)[O-])c1	28%
CC[C@@]1(C(=O)OC)N[C@H](CN(C)S(=O)(=O)c2ccc(C(C)(C)C)cc2)[C@@H]2C(=O)N(Cc3ccccc3)C(=O)[C@@H]21	-2%
CC[C@H](C)C(C(=O)N1CCN(C(=O)OC(C)(C)C)CC1)n1cc(C(CO)NC(=O)OC(C)(C)C)nn1 (some centres not stated)	-2%
Cc1ccc(-c2ccccc2)n1-c1cccc(C(=O)O)c1	-28%
CC(CCN1CCN=C1N(C)C)c1ccccc1 (configuration not stated)	-16%
CC(C)CNC(=O)CC(=O)N/N=C/c1cccs1	-17%
COc1ccc(C(=O)N/C(=C\c2cn(S(=O)(=O)N(C)C)c3ccccc23)C(=O)N2CCN(C)CC2)cc1	-16%
O=c1cc(CO)oc(CN2CCN(CCO)CC2)c1O	5%
COc1ccc(OC)c(C(c2nnnn2CC2CCCO2)N2CCN(C)CC2)c1 (configuration not stated)	-5%
O=C(O)CN1C(=O)C(=O)N(Cc2cccc(F)c2)C1=O	-8%
Cc1ccc(NC(=O)CNC(=O)c2cccs2)nc1	-10%
CCCN1Cc2cccc(C(=O)Nc3ccc(C(C)=O)cc3)c2C1=O	-11%
Cc1ccc(C(c2sc3nc(-c4ccco4)nn3c2O)N2CCN(c3ccc(F)cc3)CC2)cc1 (configuration not stated)	1%
